Source: PubChem BioAssay
VP16 counter = VP16 counterscreen qHTS for inhibitors of ROR gamma transcriptional activity | Potency, µM (titrated, usually from 53.6 µM), inactives show at the top dose activity, negative = inhibition, hits mostly inhibitors | AID 2546, 2010 | actives 3.5% (n = 310,000) | Drosophila S2 Gal4-VP16 UAS-luciferase, luminescence, 20 h;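 also: Gal4-VP16 expression switched on by copper sulfate through the metallothionein promoter; potency is read from the fitted curve at half-maximal effect; % is scaled to controls: 0 for no effect and ±100 for the full control effect; nearly all actives have a fitted effect of over 50% in size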
Mito fusion yeast = qHTS Assay for Small Molecule Inhibitors of Mitochondrial Division or Activators of Mitochondrial Fusion. AID 485298, 2010. Potency, µM (highest dose often 46.1 µM), without a hit: at the top dose growth rescue (activation), usual class: activators. S. cerevisiae fusion-defective mutant growth rescue, CellTiterGlo 48 h. actives 0.23% (n = 320,000);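 also: potency is read from the fitted curve at half-maximal effect; % of control where 0% means no effect; nearly all actives have a fitted effect of over 45% in size; temperature-sensitive fusion mutants such as fzo1-1 at 37 °C on non-fermentable ethanol glycerol medium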
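Temperature-sensitive fusion-defective S. cerevisiae (e.g. fzo1-1, mgm1-5) were grown with compound in YPEG medium (3% ethanol, 3% glycerol) for 48 hours at 37C. Growth rescue was measured as viability by CellTiterGlo luminescence after 10 minutes at ambient.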
ELG1 DNA repair = qHTS screen for small molecules that inhibit ELG1-dependent DNA repair in human embryonic kidney (HEK293T) cells expressing luciferase-tagged ELG1; HEK293T ELG1-luciferase reporter, luminescence, 16 h; DNA damage induced by 5-fluorouridine; Potency, µM (titrated, usually from 46.1 µM), inactives show at the highest dose activity change, negative = inhibition, actives largely listed as inhibitors; actives 2.3% (n = 330,000); AID 504467, 2011; also: potency is read from the fitted curve at half-maximal effect; % is scaled to controls: 0 for no effect and ±100 for the full control effect; nearly all actives have a fitted effect of over 55% in size
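In this reporter screen, reduction of luminescence relative to DMSO vehicle indicated activity. Compounds and 5-fluorouridine were added together to 2,000 cells per well, incubated for 16 hr at 37 °C, then developed with ONE-Glo.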
Rab9 promoter act = qHTS Assay for Rab9 Promoter Activators | actives 2.8% (n = 320,000) | Huh7 Rab9 promoter-luciferase reporter, luminescence, 24 h | Potency, µM (doses to about 9.22 µM), for inactives: top-dose activation, negative = inhibition, hits mostly activators | AID 485297, 2010; also: potency is read from the fitted curve at half-maximal effect; % of control where 0% means no effect; nearly all actives have a fitted effect of over 60% in size
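Measured in stably transfected Huh7 cells bearing a Rab9 promoter–luciferase construct: 24 h compound treatment at 37 °C, followed by luminescence detection.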
RORg inh = qHTS for inhibitors of ROR gamma transcriptional activity | actives 5.4% (n = 310,000) | AID 2551, 2010 | Drosophila S2 Gal4-RORgamma UAS-luciferase reporter, 20 h | Potency, µM (titrated, usually from 53.6 µM), for the others: at the highest dose activity change, negative = inhibition, actives largely listed as inhibitors; also: potency is read from the fitted curve at half-maximal effect; % is scaled to controls: 0 for no effect and ±100 for the full control effect; nearly all actives have a fitted effect of over 60% in size
Target sequence (P51450 whole entry, looked up, the tested form may be a part): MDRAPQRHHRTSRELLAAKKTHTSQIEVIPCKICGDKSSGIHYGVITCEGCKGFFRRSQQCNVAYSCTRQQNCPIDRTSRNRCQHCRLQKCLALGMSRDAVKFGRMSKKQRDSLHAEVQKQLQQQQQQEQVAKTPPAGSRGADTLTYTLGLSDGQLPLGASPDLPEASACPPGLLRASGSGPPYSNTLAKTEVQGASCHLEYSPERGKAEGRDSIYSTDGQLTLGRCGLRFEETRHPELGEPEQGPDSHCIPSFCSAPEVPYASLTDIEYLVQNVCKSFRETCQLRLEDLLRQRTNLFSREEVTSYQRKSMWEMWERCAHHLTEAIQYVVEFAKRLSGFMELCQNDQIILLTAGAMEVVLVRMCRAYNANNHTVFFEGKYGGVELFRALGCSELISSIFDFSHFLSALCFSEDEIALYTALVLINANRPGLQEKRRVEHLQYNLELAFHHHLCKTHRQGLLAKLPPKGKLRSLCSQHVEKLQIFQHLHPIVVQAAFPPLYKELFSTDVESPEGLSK
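Compounds are pin-transferred onto Drosophila Schneider cells expressing a copper-inducible Gal4–ROR gamma transactivation domain fusion. After 1 hr, copper sulfate is added to 700 uM final; luciferase is read 20 hr later.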
NPC1 promoter act = qHTS Assay for NPC1 Promoter Activators | Potency, µM (titrated, usually from 9.22 µM), for inactives: top-dose activation, hits mostly activators | Huh7 NPC1 promoter luciferase reporter, 24 h | actives 2.4% (n = 320,000);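 also: potency is read from the fitted curve at half-maximal effect; % of control where 0% means no effect; nearly all actives have a fitted effect of over 60% in size; reporter is driven by a mutant NPC1 promoter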
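Readout is luciferase luminescence, reflecting NPC1 promoter activation in stably transfected Huh7 cells after 24 h compound exposure at 37 °C in reduced-serum medium with 10% FBS.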
PKM2 act = qHTS Assay for Activators of Human Muscle isoform 2 Pyruvate Kinase; Pyruvate kinase PKM (Homo sapiens), P14618; purified PKM2, Kinase-Glo ATP luminescence, activation; response scale: 0% is enzyme alone, no compound; Potency, µM (doses to about 57.5 µM), inactives show at the highest dose activation, usual class: activators; actives 0.34% (n = 260,000); AID 1631, 2009; also: potency is read from the fitted curve at half-maximal effect; % is scaled to controls: 0 for no effect and ±100 for the full control effect; nearly all actives have a fitted effect of over 55% in size
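Purified hPK-M2 (>95% pure) converted ADP (0.1 mM final) to ATP with 0.5 mM PEP in 50 mM imidazole pH7.2, KCl, MgCl2, Tween 20, BSA; 1 h at room temperature. ATP detected by Kinase-Glo luminescence.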
MBNL1-CUG inh = qHTS Assay for Inhibitors of MBNL1-poly(CUG) RNA binding; Muscleblind-like protein 1 (Homo sapiens), Q9NR56; TR-FRET MBNL1-His/biotin-(CUG)12 binding, 665/545 ratio; Potency, µM (series often up to 57.5 µM), for inactives: at the top dose activity change, negative = inhibition, most hits filed as inhibitors; actives 0.036% (n = 280,000); AID 2675, 2010; active = well fitted inhibition curve with a large enough effect in the signal ratio, with a control signal flat, not every such curve was filed as active; inconclusive = small, poorly fitted or top-dose-only effect, or effect the other way, or a change in a side signal; inactive = no such curve, though single readings can be large or run the other way; the % refers to the signal ratio; also: potency is read from the fitted curve at half-maximal effect; % is scaled to controls: 0 for no effect and ±100 for the full control effect
Target sequence (Q9NR56 whole entry, looked up): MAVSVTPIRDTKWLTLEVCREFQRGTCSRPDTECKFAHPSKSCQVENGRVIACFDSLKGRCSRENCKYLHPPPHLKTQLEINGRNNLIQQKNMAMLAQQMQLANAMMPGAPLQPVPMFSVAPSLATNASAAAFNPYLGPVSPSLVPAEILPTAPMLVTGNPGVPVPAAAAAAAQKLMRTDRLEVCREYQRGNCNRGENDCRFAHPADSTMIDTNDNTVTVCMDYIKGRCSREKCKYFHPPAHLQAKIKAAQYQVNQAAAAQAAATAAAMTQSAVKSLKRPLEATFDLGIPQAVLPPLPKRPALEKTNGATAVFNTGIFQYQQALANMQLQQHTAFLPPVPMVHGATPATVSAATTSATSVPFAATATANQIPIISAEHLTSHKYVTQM
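Ratiometric TR-FRET (665 over 545 nm, excitation 340 nm) tracks disruption of MBNL1-His/biotin-(CUG)12 complex after 60 min at room temperature, with compounds at 92 nM to 58 uM final.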
KCNH2 3.1 inh = qHTS for Inhibitors of KCHN2 3.1: Mutant qHTS. U2OS KCNH2 3.1, thallium flux FluxOr; stronger effect = lower value. activity change, % (tested at about 1.8 µM). actives 0.95% (n = 340,000);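 active = maximum activity change below -70%; inconclusive = maximum activity change from -70% to -50%; inactive = maximum activity change above -50%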;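 also: thallium influx rate constant from kinetic fluorescence after stimulation buffer; % is scaled to controls: 0 for no effect and ±100 for the full control effect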
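Normalized rate constant (relative to positive and negative DMSO controls) derived from a 2 min kinetic fluorescence read after stimulation; U2OS cells expressing the 3.1 isoform via virus at 1.77 x 10^8 /mL.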
An asterisk follows results filed as active; ? = inconclusive; . = no result given; & = joins results of further samples; [ ] = dose if it differs, or a comment. Unless noted, calls follow the shape of the dose curve; as a rule, active = well fitted curve in the direction sought with a large enough effect; inconclusive = small, poorly fitted or top-dose-only effect, or another doubt; inactive = no such curve, though single readings can be large; an effect the other way counts as inactive or inconclusive.

SMILES | VP16 counter | Mito fusion yeast | ELG1 DNA repair | Rab9 promoter act | RORg inh | NPC1 promoter act | PKM2 act | MBNL1-CUG inh | KCNH2 3.1 inh
CC(C)[C@@H](C(=O)OCC(=O)c1ccc2c(c1)NC(=O)CO2)N1C(=O)c2ccccc2C1=O | . | . | . | . | . | . | . | . | -17.4
C=CCn1c(CCNC(=O)c2ccccc2F)nnc1SCc1nc2ccccc2c(=O)[nH]1 | -3.7% | -0.5% | 2.6% | 0.1% | 21.9% | 5.1% | 0.3% | -14.5% | -18.9
CC(=O)Nc1ccccc1O | -1.1% | -3.3% | 16.4% | 1.8% | -0.2% | -0.9% | -1.8% | 1.7% | -15.8
CC(C)C(C(=O)N1CCOCC1)N1C(=O)c2ccccc2C1=O (configuration not stated) | -2.7% | ? | -0.2% | -1.6% | 0.0% | 0.9% | -1.1% | -3.9% | 5.5
CN(C)CCCN1c2ccccc2CCc2ccc(Cl)cc21 | -3.9% | -49.6%&-9.8%[inhibitor] | -26.4% | -18.6%[46.1 µM] | ? | -8.1%[46.1 µM] | -0.4% | 23.3% | -4.9
Cc1ccc(OCc2nnc(SCC(=O)Nc3cc(C)on3)n2C)cc1 | -0.7% | -4.0% | 0.7% | 0.0% | -3.4% | 0.5% | 2.1% | -7.4% | 0.8
CC(C)c1ccc(-c2c(NCCc3ccccc3)c(=O)c2=O)cc1 | 2.7% | 0.1% | 22.1% | -0.8% | -2.1% | 5.9% | . | 18.3% | 14.7
CCOC(=O)N1CCN(C(=O)c2ccc3c(c2)NC(=O)/C(=C/c2ccccc2)S3)CC1 | -7.5% | -21.2% | 3.0% | -0.4% | 4.8% | -3.7% | . | 6.4% | -27.4
COc1ccc(/C=C2\N=C(C)N(c3ccc(C(=O)O)cc3)C2=O)cc1OC | -15.9% | -0.1% | -2.3% | 0.7% | 36.2% | -8.0% | 1.3% | ? | .
COc1ccc(C(C)NCCC(c2ccc(OC(C)C)cc2)c2ccccc2OC)cc1 (configuration not stated) | ? | -36.2%[inhibitor] | ? | 5.3% | ? | -2.9% | . | -3.8% | -15.7
NC(Cc1ccc(O)c([N+](=O)[O-])c1)C(=O)O (configuration not stated) | -18.9% | 3.2% | 0.4% | -4.9% | -2.2%[10 µM] | -13.5% | -33.8% | . | 13.7
CC1=C(C(=O)Nc2ccccc2)C(c2ccncc2)n2nnnc2N1 (configuration not stated) | -8.4% | 0.4% | 20.0% | 11.2% | -5.7% | -1.2% | -3.6% | 8.6% | -19.0
C/C(=N\NC(=O)c1ccc(NS(=O)(=O)c2cccs2)cc1)c1ccc2ccccc2c1 | ? | 1.7% | ? | -6.6% | -37.0% | -5.9% | 3.9% | -11.0% | 12.7
CCOc1ccccc1NC(=O)c1cccc(N2C(=O)CCC2=O)c1 | -7.7% | -3.3% | 3.0% | 0.3% | -22.1% | 6.0% | -4.8% | 8.0% | 3.3
CC1=C(C(=O)OCc2ccccc2)C(c2cccnc2)n2nnnc2N1 (configuration not stated) | ? | -1.7% | -13.2% | 4.3% | 29.8% | 0.8% | 0.3% | -19.2% | 8.5
Cc1cccc(Nc2ccccc2)c1 | -11.0% | 0.4% | 7.3% | -2.0% | -2.2% | -1.2% | -4.2% | -2.9% | -15.0
CCn1c(Cc2ccccc2)nnc1SCC(=O)Nc1ccccc1 | -0.8% | 0.7% | 2.1% | -0.7% | 19.6% | 9.1% | 8.7% | 11.2% | 4.0
O=C(Nc1ccc2oc(=O)ccc2c1)c1ccco1 | -7.5% | -0.6% | ? | 29.6% | 2.8% | 29.2% | -3.1% | 5.4% | 5.4
CCc1cc(C(N)=S)ccn1 | -3.9% | ? | -15.0% | -0.5% | 17.2% | -3.5% | -7.1% | 1.3% | -6.9&6.6
CN1CCN(c2cc(-c3ccccc3)nc3cc(-c4ccc(F)cc4)nn23)CC1 | -5.2% | 0.5% | 23.1µM* | 1.2% | -2.6% | 0.2% | -2.9% | 3.5% | 12.6
CCOC(=O)c1c(-c2ccccc2)nnn1-c1nc(OCC)nc(N2CCCCC2)n1 | -1.2%[0.365 µM] | 22.4% | ? | -7.6% | ? | 1.9% | -1.9% | ? | -8.5
COC(=O)C1=NN(c2cccc(C)c2)C2C(=O)N(c3ccccc3OC)C(=O)C12 (configuration not stated) | ? | -4.5% | -5.0% | 0.5% | 2.3% | -1.2% | 4.3% | 13.6% | -21.0
CCC1CCCCN1CCCNC(=O)CCCNC(=O)Cn1cnc2sc3c(c2c1=O)CCCC3 (configuration not stated) | -4.4% | -1.1% | -3.2% | 1.0% | -19.5% | -2.3% | -2.7% | . | 1.4
COc1ccc(/C=C(/Sc2nnc(-c3ccc(Cl)cc3)o2)C(=O)O)cc1 | -12.4% | -4.0% | -8.4% | 0.9% | 8.8% | -3.5% | 1.8% | -1.7% | 20.0
O=C(Nc1ccc2oc(=O)ccc2c1)c1cccnc1Cl | -2.6% | -3.6% | 8.6% | -0.4% | -12.4% | 9.7% | -0.9% | 8.5% | 3.7

The results go on:
SMILES | VP16 counter | Mito fusion yeast | ELG1 DNA repair | Rab9 promoter act | RORg inh | NPC1 promoter act | PKM2 act | MBNL1-CUG inh | KCNH2 3.1 inh
CC(C)NC(=O)C(OC(=O)c1ccccc1)C(OC(=O)c1ccccc1)C(=O)O (configuration not stated) | -11.1% | 1.4% | 4.9% | 0.0% | -12.8% | -0.8% | 1.1% | -3.5% | 6.4
Fc1cccc(Cl)c1CSc1ncn[nH]1 | 0.0% | 5.0% | 19.6% | -2.3% | -1.5% | 1.8% | 3.6% | -4.6% | 0.2
CCCn1nnc(NC(=O)c2ccc(-c3cc(Cl)ccc3Cl)o2)n1 | -13.7% | 11.0% | 6.5% | -2.0% | ? | 7.9% | -0.8% | -10.7% | 7.1
Cc1cccc(C(=O)NN/C=C/C(=O)c2ccccc2)c1 | 5.01µM* | -0.8% | 8.1% | -3.5% | 6.31µM* | -4.4% | -6.0%[11.5 µM] | 10.9% | 21.3
COc1ccc(C2NC(c3ccc(OC)c(OC)c3OC)C(C)C(=O)C2C)c(OC)c1OC (configuration not stated) | 16.5% | -0.3% | -1.6% | -0.1% | ? | -5.8% | 3.9% | ? | -14.0
COc1cc(CO)c(Br)cc1OCC(N)=O | 2.8%[10 µM] | -0.3% | 9.9% | -2.6% | -22.7% | -4.2% | -23.5% | -3.2% | 8.3
CCOc1ccc(NC(=O)c2cnsn2)cc1 | ? | 17.8% | ? | 0.562µM* | ? | 1.41µM* | -7.3% | 2.0% | -1.1
CCC(=O)NS(=O)(=O)c1cccnc1Nc1ccccc1Cl | 6.7% | -3.7% | 0.6% | -6.7% | 11.5% | 2.1% | -1.6% | -0.7% | -1.2
C=CCn1c(CNC(=O)c2ccccc2F)nnc1SCC(=O)N1CCOCC1 | . | -1.2% | -9.6% | -3.1% | . | -1.0% | -4.3% | -0.3% | 4.8
CC1(C)Cc2ccccc2C(C(=O)c2ccccc2)=N1 | 2.8% | -3.3% | -12.5% | -0.2% | 7.94µM* | -1.3% | . | 2.7% | 5.7
Cc1nn(-c2ccccc2)c2[nH]c(=O)c(CNCCN3CCOCC3)cc12 | 19.4% | -3.7% | 19.9% | -0.4% | -9.2% | -0.6% | -0.1% | -4.4% | 11.7
CN(C)CCN(C(=O)CN1C(=O)c2ccccc2C1=O)c1nc2cc3c(cc2s1)OCO3 | -2.2% | -1.3% | 19.4% | 10.3% | -31.6% | 5.3% | -1.0% | ? | -5.9
O=C(/C=C/NNC(=O)c1ccccc1)c1ccc([N+](=O)[O-])cc1 | -6.2% | 9.6% | ? | -59.1%[inhibitor] | 0.1% | -39.9%[inhibitor] | -0.2% | ? | -36.5
CCCCCC/C(C=O)=C\c1ccccc1 | 3.4% | -12.2% | 26.6% | -4.1% | 3.5% | -1.3% | . | . | -4.3
Cc1c(OC(C)C(=O)N2C[C@H]3C[C@@H](C2)c2cccc(=O)n2C3)ccc2c3c(c(=O)oc12)CCC3 (some centres not stated) | -7.8% | 2.4% | 2.9% | -3.6% | -30.0% | -0.9% | -2.5% | 11.4% | 11.2
COc1ccccc1-c1n[nH]c(=S)n1Cc1ccccc1 | ? | -6.6% | -9.1% | 1.2% | ? | 6.9% | 2.2% | -4.5% | 0.6
CCOC(=O)C1CCN(C(=O)CCCNC(=O)Cn2cnc3sc(C)c(C)c3c2=O)CC1 | -0.2% | 0.0% | -7.8% | 1.2% | 18.1% | -2.8% | -7.4% | -6.1% | -8.5
COc1ccc(OC)c(-n2c(-c3cc(-c4ccccc4)n[nH]3)n[nH]c2=S)c1 | ? | -1.4% | 1.8% | -0.3% | 7.94µM* | -4.5% | -14.7% | . | 17.4
O=C(Nc1ccccc1Oc1ccccc1)c1cccc([N+](=O)[O-])c1 | -16.9% | 9.5% | -19.5% | -2.7% | 42.3% | -3.6% | -2.2% | ? | -5.9
COc1ccccc1NC(=O)CC(c1ccc(OC(C)C)cc1)c1ccccc1OC (configuration not stated) | -8.7% | 8.5% | 8.2µM* | 0.9% | -6.9% | -1.1% | -6.2% | -7.9% | -3.2
c1coc(-c2nc(-c3ccncc3)no2)c1 | -21.9% | -5.0% | ? | ? | 6.0% | ? | -12.2% | 0.9% | 4.1

A portion of the library (hit frequency here may not be typical).
